Compound activity deposited in PubChem BioAssay by ICCB-Longwood Screening Facility, Harvard Medical School.
S aureus helic – inhibitors of S. aureus replicative helicase, primary screen, biochemical, fluorescence unwinding readout; replicative DNA helicase (DnaC/DnaB), Staphylococcus aureus; purified S. aureus helicase, fluorescence unwinding assay; about half of the hits fall short of the stated cut; inhibition, %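 (tested at about 80 µM)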; actives 0.05% (n = 120,000);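 active = both duplicates at 50% or more, or one of them with a favoured structure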;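 note: 0% = mean of negative control wells and 100% = mean of positive control wells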
MgrA-DNA mod – S. aureus MgrA activity modulators, primary screen, biochemical, S. aureus Newman, fluorescence polarization; actives 0.13% (n = 84,000); MgrA-DNA binding; inhibition, %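 (about 10 µg/mL by stock and volumes)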; AID 602314, 2012;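 active = above 50% in either of two replicates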;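 note: 0% = protein plus DNA without compound and 100% = DNA alone without protein; higher means less MgrA bound to DNA so lower polarization; one replicate is shown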
* hit, by the source's call; · = no result given. A portion of the library; the hit share may differ from the screen's.

SMILES	S aureus helic	MgrA-DNA mod
CN(C)C(=O)C(OC(=O)Cc1n[nH]c(=O)c2ccccc12)c1ccccc1 (stereo unspecified)	23	·
CCN(CC)c1ccc(/C=C/c2cc(=O)cc(C)o2)cc1	-98	·
CC(=O)CC(=O)NCc1ccccc1	·	-2.4
Nc1cc(Cl)ccc1C(=O)OC1CCOC1=O (stereo unspecified)	9	·
COC(=O)c1ccc(Nc2nnc(Cc3ccc(Cl)cc3)c(=O)[nH]2)cc1	-24	·
N#Cc1cccnc1Nc1ccc(Cl)c(Cl)c1	-1	·
O=C(O)c1ccc(I)o1	6	·
CCOC(=O)c1c(C)noc1-c1ccco1	·	-2.2
O=C1C(=O)c2ccccc2C(O)=C1c1ccc(Cl)cc1	13	4.9
COc1cccc(-c2cc3nc(-c4ccccc4)cc(=O)n3[nH]2)c1	·	-0.8
CCCN(CCC)S(=O)(=O)c1ccc(C(=O)N2CCC(=O)c3ccccc32)cc1	0	0.8
COC(=O)COc1cc2occ(-c3csc(C)n3)c(=O)c2cc1C	-16	·
CC(=O)N(Cc1ccccc1)Cc1cc2ccccc2[nH]c1=O	4	-3.2
CC(C)CC(=O)NCc1ccc2c(c1)OCO2	-1	2.0
O=C(c1ccc(Cl)cc1Cl)N1CCN(C(=O)C2CCCCC2)CC1	8	·
CC1(C)OC(=O)C(=Cc2ccc(OCc3ccc(F)cc3)cc2)C(=O)O1	·	0.9
CC1(C)OC(=O)C(=Cc2cc(Br)cs2)C(=O)O1	·	16
CN(C)c1ccc(/C=C/C(=O)C2=C(O)c3ccccc3C2=O)cc1	-93	·
COc1ccc(-c2cc(C(=O)Nc3ccccn3)c3ccccc3n2)cc1OC	·	-0.2
CCc1ccc(NC(=O)CC2C(=O)N(c3ccccc3)C(=O)N2C2CCCC2)cc1 (stereo unspecified)	10	·
Nc1nc(NCc2ccco2)n[nH]1	·	-2.5
CC(C)CC(=O)NC(=S)Nc1ccc(NC(=O)c2ccco2)cc1	1	1.4
COc1cccc(-c2nnc(SCC(=O)NCCOc3ccccc3)n2-c2ccccc2)c1	16	3.9
COc1ccc(C2=C(Nc3ccc(C(=O)N4CCOCC4)cc3)c3ccccc3C2=O)cc1	0	0.1
NC(=O)c1cnn(-c2ccc(F)cc2)c1N	·	0.5
CC1CCc2c(sc(NC(=O)C3CCCN3S(=O)(=O)c3cccs3)c2C(N)=O)C1 (stereo unspecified)	16	·
Cc1ccc(Cn2c(C(=O)NCCCN3CCOCC3)cc3sccc32)cc1	-20	·
CCOC(=O)N1CCC(n2c(=S)[nH]c3ccccc3c2=O)CC1	1	2.5
O=C(Oc1ccccc1/C=C1\Sc2ccccc2C1=O)c1ccc([N+](=O)[O-])o1	·	0.4
CCOC(=O)c1c(-c2ccccc2)oc2c1cc(OC(=O)c1cccc(Cl)c1)c1ccccc12	·	2.6
COc1ccc(NC(=O)C2(NS(=O)(=O)c3cccc4cccnc34)CCCCC2)cc1OC	14	·
CN(C)c1ccc(C=NCC(O)CN=Cc2ccc(N(C)C)cc2)cc1 (stereo unspecified)	6	2.2
CCN(CC)c1ccc2cc(C(N)=O)c(=Nc3ccc(Cl)cc3Cl)oc2c1	·	10
O=C(/C=C/c1ccc(-c2cc(Cl)ccc2Cl)o1)N1CCOCC1	27	·
COc1ccccc1C(=O)Nc1ccc2oc(-c3ccc4ccccc4c3)nc2c1	6	-0.2
O=C(Cc1ccccc1)N1CCOCC1	·	0.1
N#CC1=C(N)OC2=C(CCc3ccccc32)C1c1ccccc1 (stereo unspecified)	-5	3.9
CCCCNC(=O)c1ccc(C#N)cc1	0	·
CN(C)c1ccc(C2CC(=O)CC(=O)C2)cc1	·	-0.7
Cc1cc(C)c(C#N)c(SCC(=O)N2c3ccccc3NC(=O)C2(C)C)n1	-7	·
Cc1cc(NC(=O)/C=C\c2ccccc2)nc2c1c(=O)oc1ccccc12	-2	1.5
CC(=O)n1c(=O)oc2ccc(C)cc21	·	-0.8
NC(=O)C1CCN(C(=O)CC2(CC(=O)O)CCCCC2)CC1	-13	·
Cc1nc2ccccc2n1C(C)c1ccccc1 (stereo unspecified)	18	-1.3
Cc1ccc(Cl)cc1NC(=O)CC(NCC1CCCO1)C(=O)O (stereo unspecified)	-15	·
Cc1nnc(NC(=O)c2ccc3ccccc3c2)s1	2	·
CN(C(=O)c1cc2nc(-c3ccco3)cc(C(F)(F)F)n2n1)c1ccc(OC(F)(F)F)cc1	10	-0.9
COc1ccc(-c2noc(CC(=O)N(C)c3cc(C)ccc3C)n2)cc1	9	·
O/N=C/c1ccc(OCc2ccccc2)cc1	·	2.1
CC(=O)N1CCc2c([nH]c3ccccc23)C1C(F)(F)F (stereo unspecified)	·	-1.4
CC(=O)Nc1ccc(Cl)cc1-c1nc2ccc(C)cc2[nH]c1=O	-3	-3.1
CCCC1CCC(C(=O)Nn2cnc3ccccc3c2=O)CC1 (stereo unspecified)	-28	·
CC(=O)Nc1cc(-c2ccc(Cl)cc2)[nH]n1	-1	4.3
CCC(C)NC(=O)c1ccc(/C=C2/Sc3ccccc3NC2=O)cc1 (stereo unspecified)	5	0.5
COc1ccc(C2c3ccsc3CCN2C(=O)C(C)(C)C)cc1 (stereo unspecified)	·	4.3
COc1cc(/C=c2/sc3nc4cc(C)c(C)cc4n3c2=O)ccc1OCc1ccc(C)cc1	·	1.3
NNc1cc(C(F)(F)F)nc2ccccc12	-15	·
C(=N\Nc1nc2ccccc2s1)/c1ccc2ncccc2c1	-2	·
COc1ccc(/C=N/n2c(=O)c(C(C)(C)C)nn3cnnc23)c(OC)c1	-4	-1.1
CCCNC(=O)C1CC(c2cccc(OC)c2)=NO1 (stereo unspecified)	-14	·
The listing continues:
SMILES	S aureus helic	MgrA-DNA mod
O=C(NCc1ccc2c(c1)OCO2)c1nnc(-c2ccccc2)o1	5	1.2
CN(Cc1nc2ccccc2c(=O)[nH]1)C(C(=O)NC(N)=O)c1ccccc1 (stereo unspecified)	-6	·
CCN(CC)C(=O)/C(=C\c1ccc(OC)c(OC)c1)n1ccccc1=O	12	4.2
O=C(NCCCN1CCOCC1)c1cc(-c2ccco2)nc2ccccc12	1	·
CCN(C(=O)/C=C/c1ccccc1)c1nnc(Cn2nnc3ccccc32)s1	0	-1.9
N=c1ccccn1CC(O)c1ccccc1 (stereo unspecified)	·	-0.4
CN1C(=O)CC(c2ccccc2)C1=O (stereo unspecified)	·	2.2
COc1c(N)c2ccccc2[nH]c1=O	6	·
c1ccc(CN2CN(C3CCCCC3)Cn3c2nc2ccccc23)cc1	-6	·
O=C(Nc1cccc(C(F)(F)F)c1)c1c(Cl)nc2sccn12	-4	·
CCCCN(CC)C(=O)Cn1cnc2onc(-c3ccc(F)cc3)c2c1=O	14	·
Cc1ccc(S(=O)(=O)NCC(=O)N2CCC(C)CC2)cc1	4	1.4
CN(C)S(=O)(=O)c1cccc(CSc2ncnc3c2cnn3-c2ccccc2)c1	8	·
CC1CC(C)CN(S(=O)(=O)c2cccc(C(=O)OCCN3CCCC3=O)c2)C1 (stereo unspecified)	-9	·
Nc1ccc(C2CCCc3nonc32)c2nonc12 (stereo unspecified)	2	4.2
O=C(O)C1C2C=CC3(CN(c4ccc(Cl)c(F)c4)C(=O)C13)O2 (stereo unspecified)	-19	-2.2
Cc1ccc(CCNC(=O)C2CCC(Cn3c(=O)[nH]c4ccsc4c3=O)CC2)cc1 (stereo unspecified)	12	0.2
CCN1CCN(S(=O)(=O)c2ccc(F)cc2)CC1	14	·
CCCNC(=O)COc1ccc2ccc(=O)oc2c1	3	·
COc1cc(C)c(CN2CCN(C(=O)c3cc(S(=O)(=O)N(C)C)ccc3Cl)CC2)cc1OC	-3	·
NS(=O)(=O)c1ccc(NC(=O)COC(=O)c2cc3ccccc3o2)cc1	0	-2.8
O=C(CSc1nnc2ccccn12)N1CCc2ccccc2C1	-20	-1.8
CCc1nc2cccnc2n1-c1ccc(CC(=O)NCCN2CCOCC2)cc1	25	·
COc1cccc2sc(N3CCc4ccccc4C3)nc12	1	-0.2
O=C(COC(=O)c1ccc(F)c(S(=O)(=O)N2CCOCC2)c1)NCc1ccc2c(c1)OCO2	6	·
Cc1cc(C)cc(NC(=O)C(Sc2nnc(C)n2C2CC2)c2ccccc2)c1 (stereo unspecified)	18	·
CCOC(=O)c1c(C)c(C#N)c(NC(=O)c2ccccc2)n1-c1ccccc1	6	·
CCC1C=CCC2C(=O)N(CC(=O)NCCC3=CCCCC3)C(=O)C12 (stereo unspecified)	0	-1.3
OC(Cn1ccc2ccccc21)Cn1c(Cc2ccccc2)nc2ccccc21 (stereo unspecified)	-19	·
Cc1cc(C)n(CCCNC(=O)CSc2nnc(C(F)(F)F)n2C)n1	7	·

Exported bar-delimited: entries from further up
molecule | S aureus helic | MgrA-DNA mod
CCN1CCN(S(=O)(=O)c2ccc(F)cc2)CC1 | 14 | ·
COc1cc(C)c(CN2CCN(C(=O)c3cc(S(=O)(=O)N(C)C)ccc3Cl)CC2)cc1OC | -3 | ·
O=C(COC(=O)c1ccc(F)c(S(=O)(=O)N2CCOCC2)c1)NCc1ccc2c(c1)OCO2 | 6 | ·
CCC1C=CCC2C(=O)N(CC(=O)NCCC3=CCCCC3)C(=O)C12 (stereo unspecified) | 0 | -1.3

The list goes on.
SMILES	S aureus helic	MgrA-DNA mod
O=C(c1ccccc1)n1cc2c(n1)-c1ccccc1CS2	·	0.5
CCC(C)NC(=O)Nc1ccc(C)c(Cl)c1 (stereo unspecified)	7	-0.7
N#Cc1ccc(C(=O)NC2CCCc3ccccc32)cc1 (stereo unspecified)	6	·
O=C(Nc1ccc(NC(=S)NC(=O)c2cc3ccccc3o2)cc1)c1ccco1	2	-1.1
COc1ccc(CC(=O)OCCOc2ccccc2F)cc1	9	1.2
Cc1oc(C(C)(C)C)cc1C(=O)Nc1ccc(N(C)C)cc1	-22	·
O=C(NCCC1=CCCCC1)c1ccc2c(Cl)c3c(nc2c1)CCC3	20	-0.7
CCn1c(SC(C)C(=O)NC(N)=O)nnc1-c1ccccc1 (stereo unspecified)	-9	·
Cc1cc(C)n(CC(O)Cn2c3ccccc3c3ccccc32)c(=O)n1 (stereo unspecified)	0	-1.4
COc1cc(S(=O)(=O)N(CCc2ccccc2)Cc2cccs2)ccc1-n1cnnn1	3	16
COCc1cc(C)n(CC(N)=O)c(=O)c1C#N	-4	-2.6
CC(C)=CCCC12CCC(CO)(CO1)C(C)C2 (stereo unspecified)	-2	-1.2
CCc1ccccc1NC(=O)c1cc2cccc(OC)c2oc1=O	4	·
O=C(CSc1nnc2scc(-c3ccccc3)n12)N1CCCCCC1	0	0.7
C=CCN1C(=O)C(C(=O)N2CCOCC2)C2CC1(C)Oc1ccccc12 (stereo unspecified)	0	·

7 compounds drawn at random from those above:
SMILES	S aureus helic	MgrA-DNA mod
CN(C(=O)c1cc2nc(-c3ccco3)cc(C(F)(F)F)n2n1)c1ccc(OC(F)(F)F)cc1	10	-0.9
CCCN(CCC)S(=O)(=O)c1ccc(C(=O)N2CCC(=O)c3ccccc32)cc1	0	0.8
Cc1oc(C(C)(C)C)cc1C(=O)Nc1ccc(N(C)C)cc1	-22	·
c1ccc(CN2CN(C3CCCCC3)Cn3c2nc2ccccc23)cc1	-6	·
CCCCNC(=O)c1ccc(C#N)cc1	0	·
N#CC1=C(N)OC2=C(CCc3ccccc32)C1c1ccccc1 (stereo unspecified)	-5	3.9
COc1ccc(C2=C(Nc3ccc(C(=O)N4CCOCC4)cc3)c3ccccc3C2=O)cc1	0	0.1

The results go on.
SMILES	S aureus helic	MgrA-DNA mod
S=C(Nc1cccc(Cl)c1)NC1CCSc2ccc(Cl)cc21 (stereo unspecified)	13	1.1
O=C(COc1cccc2ccccc12)N1c2ccccc2CCc2ccccc21	6	0.8
C/C(N)=C(/C#N)C(=O)CSc1n[nH]c(C(C)C)n1	10	·
CC(C)NC(=O)Cn1ncc2c3ccccc3n(C)c2c1=O	-3	·
Nc1ccccc1C(=O)NC1CC1	-20	·
FC(F)(F)c1ccc(Cn2cnc3ccccc32)cc1	11	-3.0
CN[C@@H]1[C@@H](O[C@H]2O[C@H](CO)[C@@H](N)[C@H](O)[C@H]2O)O[C@H]2C[C@@H](N)[C@H](O[C@H]3[C@H](O)[C@@H](O)[C@H](N)C[C@@H]3N)O[C@@H]2[C@@H]1O	·	2.1
O=C(CNC(=O)c1cccs1)c1ccc(F)cc1	-4	-0.7
Clc1ccc(C2=NNC(c3ccc4c(c3)OCO4)C2)cc1Cl (stereo unspecified)	-1	·
CCn1c(=NC(=O)CSCC(=O)N2CCN(c3ccccc3)CC2)sc2cc(F)ccc21	-9	·
COc1ccccc1NC(=O)CSc1ccccn1	0	0.2
O=C(Nc1ccccc1)N1CC2CCCN2c2ccccc21 (stereo unspecified)	-4	·
CC(=O)n1cc(/C=c2/sc3nc4c(C)c(C)ccc4n3c2=O)c(-c2ccccc2)n1	-21	1.2
COc1cc(/C=C2\SC(=O)N(CCN)C2=O)ccc1OC(F)F	6	·
O=C(N/N=C1\CC2CC=CC12)c1ccc(O)cc1 (stereo unspecified)	6	·

A section of the results above:
SMILES	S aureus helic	MgrA-DNA mod
COc1cc(/C=C2\SC(=O)N(CCN)C2=O)ccc1OC(F)F	6	·
O=C(N/N=C1\CC2CC=CC12)c1ccc(O)cc1 (stereo unspecified)	6	·

Later entries.
SMILES	S aureus helic	MgrA-DNA mod
Cc1cc2c(SCC(=O)c3cccs3)ncnc2s1	16	-3.7
CC(NC(=O)CSc1nnc(-c2cccc(F)c2)n1-c1ccccc1)c1ccccc1 (stereo unspecified)	-8	1.6
Cc1cc(C(C)(C)C)cc(C)c1I	·	-1.7
CCOC(=O)CC(N)c1cccs1 (stereo unspecified)	-6	·
O=C(COCc1cc(-c2ccc3c(c2)OCO3)on1)N1CCCC1	1	·
O=C(OCCN1CCN(c2cc(C(F)(F)F)nc3c(F)cccc23)CC1)C(F)(F)F	·	-0.7
COC(=O)C1=C(NC(=O)c2ccc3c(c2)OCO3)CCS1	-14	·
O=C(COc1cc(Cl)ccc1Cl)Nc1cccc2nsnc12	19	·
